High-throughput results as filed in PubChem.
StopGo reporter: High Throughput Screening for Foot and Mouth Disease Virus Antivirals | human cells with a luciferase reporter of 2A StopGo recoding; control for the full effect not named in the record | Potency, µM (series often up to 57.9 µM), for inactives: top-dose signal change, negative = less light | hit rate 1.2% among 410,000 | AID 1159524, 2015; active = well fitted falling curve with a large enough effect; inconclusive = small, poorly fitted or top-dose-only effect; inactive = no such curve, though single readings can be large or run the other way; tested in HEK293T cells; further: on the % scale 0 is the no-effect control and ±100 the full control effect; nearly all actives have a fitted effect of over 45% in size; luciferase light after 4 h
Cruzain noTriton: qHTS Assay for Promiscuous and Specific Inhibitors of Cruzain (without detergent). Cruzipain (Trypanosoma cruzi), P25779. purified cruzain, Z-FR-AMC fluorescence, no detergent. Potency, µM, for inactives: max response, negative = inhibition, actives largely listed as inhibitors. hit rate 2.3% among 200,000. AID 1476, 2009;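 further: plate controls were enzyme without inhibitor for no effect and buffer without enzyme for full effect; nearly all actives have a fitted effect of over 40% in size; top concentration of the series not given in the record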
Target sequence (P25779 123-467 limits assumed): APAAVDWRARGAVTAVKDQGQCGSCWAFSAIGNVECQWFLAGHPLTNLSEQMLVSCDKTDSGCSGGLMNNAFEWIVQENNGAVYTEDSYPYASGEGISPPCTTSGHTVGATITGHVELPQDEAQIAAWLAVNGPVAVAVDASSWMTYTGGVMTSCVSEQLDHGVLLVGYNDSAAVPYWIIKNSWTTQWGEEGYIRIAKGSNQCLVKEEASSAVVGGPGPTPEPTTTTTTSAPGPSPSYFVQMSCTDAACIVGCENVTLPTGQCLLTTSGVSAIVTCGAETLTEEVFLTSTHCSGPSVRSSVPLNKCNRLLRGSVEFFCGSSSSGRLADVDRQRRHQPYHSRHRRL
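Purified cruzain at 1.5 nM, pre-incubated 15 min with compound at room temperature in 100 mM sodium acetate pH 5.5, 5 mM DTT, 0.00005% Triton X-100. Reaction started with 2 uM Z-FR-AMC; AMC fluorescence increase over 60 s gives rate.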
MARV entry inh: qHTS for inhibitors of binding or entry into cells for Marburg Virus; Marburg virus pseudotyped entry inhibition, cell reporter; control for the full effect not named in the record; about a third of the inactives were read at about 46 µM; Potency, µM (series often up to 37.8 µM), for the others: at the highest dose activity change, negative = inhibition, most hits filed as inhibitors; hit rate 1.8% among 300,000; AID 540276, 2011; active = well fitted inhibition curve with a large enough effect; inconclusive = small, poorly fitted or top-dose-only effect, or effect the other way; inactive = flat fitted curve, though single readings scatter; tested in HEK293 cells; about a fifth of its hits are not listed in these tables; further: on the % scale 0 is the no-effect control and ±100 the full control effect; luciferase read-out
LASV entry inh: qHTS for Inhibitors of binding or entry into cells for Lassa Virus. Lassa virus pseudotype entry inhibition, cell reporter; control for the full effect not named in the record. hit rate 1.2% among 300,000. AID 540256, 2011. Potency, µM (top dose mostly 37.9 µM), for inactives: top-dose activity change, negative = inhibition, usual class: inhibitors; active means well fitted inhibition curve with a large enough effect; inconclusive means small, poorly fitted or top-dose-only effect, or effect the other way; inactive means flat fitted curve, though single readings scatter; tested in HEK293 cells; further: on the % scale 0 is the no-effect control and ±100 the full control effect; nearly all actives have a fitted effect of over 50% in size; luciferase read-out
RE007 growth inh: qHTS Assay for Inhibitors of the HIV-1 protein Vpr | AID 651644, 2012 | hit rate 0.21% among 360,000 | S. pombe RE007 Vpr strain, BacTiter-Glo ATP luminescence, 24 h; control for the full effect not named in the record | Potency, µM (highest dose often 92.2 µM), without a hit: at the top dose activity change, negative = less growth; active = well fitted falling curve with a large enough effect; inconclusive = small, poorly fitted or top-dose-only effect; inactive = no such curve, though single readings can be large or run the other way;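 further: on the % scale 0 is the no-effect control and ±100 the full control effect; nearly all actives have a fitted effect of over 50% in size; the assay follows cell death caused by Vpr and the record does not say whether a fall means rescue or toxicity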
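Fission yeast RE007 carrying one integrated HIV-1 vpr copy, seeded at OD 0.01 in PMG+AL medium with 23 nL pinned compound. Grown 24 h at 30 degrees; viability read by BacTiter-Glo luminescence after 5 min.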
NS1 function inh: qHTS Assay for Inhibitors of Influenza NS1 Protein Function; S. cerevisiae slowed by influenza A NS1, growth recovery by OD600; Potency, µM (titrated, usually from 46.1 µM), inactives show at the highest dose activity, positive = more growth; hit rate 0.4% among 270,000; active means well fitted rising curve with a large enough effect; inconclusive means small, poorly fitted or top-dose-only effect; inactive means no such curve, though single readings can be large or run the other way; further: nearly all actives have a fitted effect of over 50% in size
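Growth recovery, yeast-based: influenza A NS1 expressed in S. cerevisiae causes slow growth, and suppressors are detected by OD600. The parent strain without NS1 is used as positive control.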
Cruzain inh Det: qHTS Assay for Promiscuous and Specific Inhibitors of Cruzain (with detergent) | Cruzipain (Trypanosoma cruzi), P25779 | purified cruzain, Z-FR-AMC fluorescence, 0.01% Triton | Potency, µM, without a hit: max response, negative = inhibition, actives largely listed as inhibitors | hit rate 0.43% among 200,000;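 further: plate controls were neutral wells for no effect and buffer without enzyme for full effect; nearly all actives have a fitted effect of over 40% in size; top concentration of the series not given in the record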
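Enzyme 1.5 nM, Z-FR-AMC 2 uM, NaOAc 100 mM pH 5.5, DTT 5 mM, Triton X-100 0.01%; 15 min RT compound preincubation; kinetic ex360/em450, 60 s delta.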
SARS PLpro yeast: qHTS of Yeast-based Assay for SARS-CoV PLP; S. cerevisiae expressing SARS-CoV PLpro, growth rescue; control for the full effect not named in the record; Potency, µM (doses to about 32.9 µM), without a hit: top-dose activity, positive = growth rescue; hit rate 0.19% among 330,000; AID 485353, 2010; active means well fitted rising curve with a large enough effect; inconclusive means small, poorly fitted or top-dose-only effect; inactive means no such curve, though single readings can be large or run the other way; further: 0% is about no effect; nearly all actives have a fitted effect of over 55% in size; growth read by luminescence after 48 h
* hit, by the source's call; ? = inconclusive; / = no result given; & = joins results of further samples; [ ] = another dose, or the depositor's remark. Unless noted, the call rests on the fitted dose curve; in most records, active means well fitted curve in the direction sought with a large enough effect; inconclusive means small, poorly fitted or top-dose-only effect, or another doubt; inactive means no such curve, though single readings can be large; an effect the other way counts as inactive or inconclusive. Potency means the concentration at half of the fitted maximal effect.

SMILES	StopGo reporter	Cruzain noTriton	MARV entry inh	LASV entry inh	RE007 growth inh	NS1 function inh	Cruzain inh Det	SARS PLpro yeast
CCCCc1c(C)nc2ccc(Br)cc2c1SCCC#N	/	7%	-6%	/	/	-8%	-11%	1%
O=C(NCc1nc2ccccc2[nH]1)C1=C[C@@H](c2ccc(Br)cc2)C[C@@H](OCc2ccc(CO)cc2)O1	0%	/	/	/	3%	4%	/	-2%
Cc1sc(C(C2C(=O)CC(C)(C)CC2=O)C2C(=O)CC(C)(C)CC2=O)cc1[N+](=O)[O-]	?	/	/	/	-8%	-4%	/	15%
CCN(Cc1ccccc1)Cc1c(O)ccc2c(=O)c(-c3ccc(Cl)cc3)c(C(F)(F)F)oc12	5%	-2%	5%[46.1 µM]	2%[46.1 µM]	/	/	0.0%	/
COc1ccccc1Nc1nc(N)nc(CSc2nnc(C)s2)n1	15%	-6%	3%	19%	-5%	-12%	4.2%	/
CCN(Cc1ccccc1)S(=O)(=O)c1csc(C(N)=O)c1	-18%	/	/	/	11%	-1%	/	2%
O=C(O)c1cc(-c2cc3ccccc3o2)nn1-c1ccccc1	14%	/	6%[46.1 µM]	-1%	-5%	/	/	-2%
COc1ccc(C(C)=O)cc1COC(=O)c1ccc(S(=O)(=O)N2CCOCC2)cc1	-14%	?	1%	-7%	-17%	-8%	-2.2%	-11%
CCn1nnc(-c2ccccc2NC(=O)C(F)(F)F)n1	/	5%	9%	19%	-1%	1%	0.8%	8%
CC1Cc2cc(S(=O)(=O)NCc3ccccc3)ccc2N1C(=O)C1CCC1 (stereo not given)	1%&-5%	/	?	?	7%	6%	/	1%
O=C1c2ccccc2NC(c2ccc(-c3cccc(Cl)c3)o2)N1O (stereo not given)	50%[activator]	?	-26%	66%[14.3 µM]	-15%	-207%	-8.4%	-27%
O=C(CSc1nnnn1C1CCCCC1)NNC(=O)c1ccco1	-5%	/	/	/	-13%	2%	/	1%
CCOC(=O)Nc1ccc([N+](=O)[O-])cc1C	6%	10%	-6%	11%	33%	11%	-5.1%	-19%
O=Cc1c(Sc2ccccc2)nc2ccccn2c1=O	?	1%	?	?	2%	-52%	-9.5%	?
CCn1cc(C(=O)NCCc2ccc(Cl)cc2)c(=O)c2cc(S(=O)(=O)N3CCOCC3)ccc21	-2%	-11%	-14%[46.1 µM]	-23%[46.1 µM]	/	/	-3.0%	/
O=C(CCNS(=O)(=O)c1cccc2nsnc12)NC1CCN(Cc2ccccc2)CC1	-19%	-5%	1%&1%	11%	-18%	6%	-2.7%	-9%
CC(=O)N1c2ccccc2C(=O)C1N1CCN(c2cccc(C)c2C)CC1 (stereo not given)	0%	-3%	/	?	/	/	1.9%	/
COc1ccc2[nH]c3nc(SCC(=O)NC4CC4)nnc3c2c1	-10%	/	10%[46.1 µM]	/	2%	6%	/	9%
Cc1[nH]n(-c2ncc(-c3ccccc3)s2)c(=O)c1C(c1ccc(Br)cc1)C(C#N)C#N (stereo not given)	28µM*	13µM*	22%	8%	-11%	4.5µM*	?	-4%
Cc1ccc(OCC(=O)N2CCN(C(=O)c3ccncc3)CC2)cc1	-1%	/	/	/	-13%	4%	/	0%
c1cc2c(cn1)cnc1cscc12	13%	-8%	-4%	6%	5%	4%	-3.4%	-31%
O=C(NC1CCCCCC1)c1cc(S(=O)(=O)N2CCC3(CC2)OCCO3)ccc1F	-5%	?	-17%	-8%	1%	-8%	-2.6%	-4%
O=C(CSc1ncc(-c2ccccc2)[nH]1)Nc1ccc(F)cc1F	13%	9%	?	-3%[46.1 µM]	/	/	-8.1%	/
Cn1c(=O)c2cc(C(=O)NC3CCCCCC3)sc2c2ccccc21	-18%	5%	-3%[46.1 µM]	-16%[46.1 µM]	/	/	-3.9%	/
COCC(C)n1c(C)cc(C(=O)COC(=O)CCc2nc3ccccc3c(=O)[nH]2)c1C (stereo not given)	-4%	/	3%[46.1 µM]	16%[46.1 µM]	-1%	/	/	3%
CC(=O)c1ccc(-n2nnnc2SCC(=O)NC2CCCCC2)cc1	7%	/	22%[46.1 µM]	-2%[46.1 µM]	1%	5%	/	3%
CCOc1ccc(/C=C/C(=O)OCC(=O)NCCc2ccc(OCC)c(OCC)c2)cc1OC	-26%	/	0%	1%	16%	/	/	-2%
Cc1ccccc1NC(=O)c1ccc2c(c1)c(C)c(C)n2Cc1ccccc1	4%	-20%	/	?	/	/	0.2%	/
Cc1cccc(NC(=O)CSCC(=O)Nc2cc(Cl)ccc2N2CCOCC2)c1	0%	/	?	?	-3%	/	/	-11%
O=C(NCCCCCCCCCNC(=O)C(F)(F)F)C(F)(F)F	3%	1%	4%	12%	21%	-15%	2.6%	-2%
Cc1ccc(CNC(=O)c2cccc(Nc3nc4ccccc4n4nnnc34)c2)cc1	8%	-8%	1%[46.1 µM]	?	/	/	-1.5%	/
CCn1c(SCc2ccc(F)cc2)nc2c(c1=O)SCC2	-15%	/	?	-12%	1%	/	/	0%
COc1ccc(N(C)C(=O)Nc2ccc3nsnc3c2)cc1	0%	/	?	-29%[46.1 µM]	3%	-8%	/	0%
Cc1oc(-c2ccccc2Cl)nc1CS(=O)CC(=O)N1CCN(c2ccccc2)CC1 (stereo not given)	?	/	/	/	9%	-10%	/	0%
Cc1cccc(NC(=O)CCNS(=O)(=O)c2ccc3[nH]c(=O)oc3c2)c1	2%	/	/	/	-15%	27%	/	7%
CCCc1cc(C(=O)Nc2ccc(C)cc2)no1	41%[activator]	-8%	/	/	-17%	-12%	-0.9%	1%
Cc1ccc(Cc2c(C)nc3nc(SCC(=O)NCCCN4CCCCCC4)nn3c2C)cc1	-9%	/	?	7%[46.1 µM]	-19%	16%	/	2%
COc1ccccc1Nc1nc(NCCO)nc(N)c1[N+](=O)[O-]	-20%	/	?	-10%	-3%	1%	/	2%
Cc1ccc(NC(=O)CCCC(=O)OC(C)C(=O)c2ccccc2)cc1 (stereo not given)	8%	/	1%[46.1 µM]	10%[46.1 µM]	-5%	-34%	/	-1%
COc1ccccc1/C=C1/C(=O)N(c2cc(C)cc(C)c2)C(c2cccc([N+](=O)[O-])c2)S1(=O)=O (stereo not given)	-13%	-22%	-9%	?	2%	18%	-1.5%	16%
COc1ccccc1-n1cccc1C=O	1%	/	5%	13%	-9%	4%	/	-1%
O=C(CCNC(=O)C1CCN(S(=O)(=O)c2ccccc2)CC1)NCCc1cccc(F)c1	-21%	/	/	/	1%	-6%	/	-7%
O=C(Nc1ccc(C(=O)Oc2ccccc2)c(O)c1)c1ccccc1	14%	/	?	5%[46.1 µM]	14%	/	/	-7%
CC(C)S(=O)(=O)C1=NSC2=NC(=O)/C(=C\c3ccc(-c4ccccc4)o3)C(=N)N21	?	8%	?	11%	11%	11%	?	-19%
Cc1ccc(Cl)cc1-n1c(=O)cc(N2CCN(c3ccccc3)CC2)[nH]c1=O	-10%	-15%	/	-6%[46.1 µM]	/	/	-0.2%	/
COc1ccc(C(=O)OCC(=O)N2CCC(C)CC2)cc1S(=O)(=O)N1CCOCC1	-5%	/	9%	8%	10%	/	/	0%
O=C(Nc1ccc(OC(=O)c2cccnc2)cc1)c1cccnc1	3%	-11%	?	?	6%	-8%	5.3%	?
Cc1ccsc1-c1nc(CN2C[C@@H](C)O[C@@H](C)C2)c(C)o1	0%	/	2%[46.1 µM]	?	-4%	-5%	/	-1%
COc1ccc(C2=NS(=O)(=O)N(C)C(C(=O)N3CCN(C)CC3)=C2)cc1	-22%	/	/	/	1%	1%	/	-1%
COc1ccc(CCN(C)C(=O)N2CCOCC2)cc1OC	23%	5%	-12%	-5%	0%	6%	5.7%	4%
COc1ccc(CC(=O)NCCC2=CCCCC2)cc1	16%	/	?	6%[46.1 µM]	155%	/	/	-1%
Cc1cc(C)c2c(=O)[nH]c(SCC(=O)NCCc3ccccc3)nc2n1	/	-3%	24%	22%	14%	2%	-1.9%	0%
CC1Cc2ccccc2N1CC(=O)NC(=O)NC1CCCC1 (stereo not given)	-10%	/	-1%	10%	11%	/	/	-3%
O=C(CNC(=O)c1ccc(Cl)cc1)OCC(=O)N1CCCC1	12%	/	-8%[46.1 µM]	18%	8%	/	/	0%
CC1(C)CC(=O)C(/C=N/c2ccccn2)=C(O)C1	/	-12%	-2%	-6%	1%	10%	-2.5%	7%
Cc1ccc(Cl)cc1NC(=O)COC(=O)Cn1cnc2c1c(=O)n(C)c(=O)n2C	-13%	/	-23%[46.1 µM]	?	31%	/	/	2%
CCOC(=O)C1=NN(c2ccc(C)cc2)CC1C(=O)OC (stereo not given)	12%	8%	14%	1%	-15%	6%	-6.3%	-10%
CCCC(=O)NC(=S)Nc1cccc(NC(=O)c2ccccc2)c1	-9%	/	-26%[46.1 µM]	0%	9%	-3%	/	1%
Cn1c(N)c(C(=O)Nc2c(Cl)cccc2Cl)sc1=S	-14%	/	3%	?	-3%	2%	/	-1%
Cc1c(Nc2c3ccccc3nc3ccccc23)c(=O)n(-c2ccccc2)n1C	-4%	/	9%	16%	-12%	-5%	/	-1%

Additional entries follow:
SMILES	StopGo reporter	Cruzain noTriton	MARV entry inh	LASV entry inh	RE007 growth inh	NS1 function inh	Cruzain inh Det	SARS PLpro yeast
COc1ccccc1N1CC(C(=O)Nc2nc(C)cs2)CC1=O (stereo not given)	-5%	/	-4%	2%	-27%	/	/	3%
O=C(NCCN1CCc2ccccc2C1)C1CCN(S(=O)(=O)N2CCCCC2)CC1	/	-1%	0%&-1%	12%	12%	0%	0.2%	8%
CCOCCCNC(=O)C1CCN(C(=O)Nc2ccc(Cl)cc2)CC1	-21%	7%	7%	22%	16%	3%	0.6%	0%
CCOc1ccc(C(=O)Nc2cccc(NC(=O)c3ccc(C(C)(C)C)cc3)c2)cc1Br	4%	7.9µM*	/	-20%[46.1 µM]	/	/	1.1%	/
Cc1cccc(CNC(=O)Cn2ccc3cc(S(=O)(=O)N4CCCCCC4)ccc32)c1	12%&-7%	7%	/	-12%[46.1 µM]	6%	2%	-7.4%	3%
Cc1oc2c(C)c3oc(=O)c(CCC(=O)N4C[C@H]5C[C@@H](C4)c4cccc(=O)n4C5)c(C)c3cc2c1C	-20%	/	/	/	-6%	-18%	/	6%
